UUG fidelity: modulators of start codon recognition fidelity in yeast | S. cerevisiae UUG-firefly luciferase reporter, luminescence/redox ratio | activity score, % at 18.7 µM | hit rate 0.13% among 350,000;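 active = replicate mean at a twofold rise or more, about +100% in these data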;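 also: firefly luciferase made from a UUG start codon reports start codon fidelity; reporter light over untreated wells divided by growth signal over untreated wells; some hits fall short of that in this replicate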
HIV Env fusion: HIV envelope-mediated fusion inhibition | hit rate 1.1% among 360,000 | HeLa-JRFL Env/CEM21 cell fusion, luciferase | inhibition, % at 12.3 µM;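 active = mean replicate inhibition score of at least 50 and every replicate individually at or above 50; inconclusive = only one of the two criteria met; inactive = mean below 50 and not all replicates reaching 50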;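 also: 0% = plate neutral controls and 100% = maraviroc near 300 nM; one replicate is shown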
Active calls of the source: *; ? = inconclusive; & = joins results of further samples; [ ] = dose if it differs, or a comment. These rows are one share of the data (hit frequency here may not be typical).

SMILES	UUG fidelity	HIV Env fusion
COCC(=O)Nc1ccc2c(c1)[C@H]1C[C@H](CC(=O)NCCN3CCCCC3)O[C@@H](CO)[C@H]1O2	-9.7	15.5[16.7 µM]
Cc1ccc(S(=O)(=O)N(C)C[C@H]2OCCCC[C@@H](C)Oc3ccc(NC(=O)Nc4cccc5ccccc45)cc3C(=O)N([C@@H](C)CO)C[C@@H]2C)cc1	2.2	-55.0[16.7 µM]
Cc1ccccc1-c1cnc2c(c1)C(=O)N([C@H](C)CO)C[C@H](C)[C@@H](CN(C)C(=O)c1ccncc1)O2	-1.0	8.6[16.7 µM]
COc1ccccc1-c1cn(CC[C@@H]2CC[C@H](NC(=O)C3CCCCC3)[C@@H](CO)O2)nn1	-12.1	?
C[C@@H]1CN([C@H](C)CO)C(=O)Cc2cc(NS(=O)(=O)c3cn(C)cn3)ccc2O[C@H]1CN(C)C(=O)Nc1ccc(F)cc1	8.0	-27.6[16.7 µM]
C[C@@H]1CN([C@H](C)CO)S(=O)(=O)c2ccc(-c3cccnc3)cc2O[C@H]1CN(C)C(=O)NC1CCCCC1	14.7	-26.4[16.7 µM]
COCC(=O)N(C)C[C@@H]1Oc2cc(Br)ccc2S(=O)(=O)N([C@@H](C)CO)C[C@@H]1C	2.0	8.5[16.7 µM]
CCCN(C)C[C@H]1Oc2ncc(-c3cccc(C(=O)N(C)C)c3)cc2C(=O)N([C@@H](C)CO)C[C@@H]1C	-7.1	-21.5[16.7 µM]
O=C(C[C@@H]1CC[C@@H](NC(=O)Nc2cccc(F)c2)[C@H](CO)O1)NCC1CC1	-16.1	6.6[16.7 µM]
CC(=O)N(C)C[C@@H]1Oc2cc(-c3ccncc3)ccc2S(=O)(=O)N([C@H](C)CO)C[C@@H]1C	-7.1	18.9[16.7 µM]
CCC(=O)N(C)C[C@@H]1Oc2cc(C#Cc3ccccc3)ccc2S(=O)(=O)N([C@@H](C)CO)C[C@H]1C	6.7	59.3*[16.7 µM]
Cc1ccc(S(=O)(=O)Nc2ccc3c(c2)C(=O)N([C@@H](C)CO)C[C@@H](C)[C@H](CN(C)C(=O)NC2CCCCC2)OCCCC[C@@H](C)O3)cc1	3.1	-59.8[16.7 µM]
O=C(C[C@H]1C=C[C@@H](NC(=O)Nc2ccc3c(c2)OCO3)[C@H](CO)O1)NCc1ccc(F)cc1	-9.5	2.0[16.7 µM]
C[C@H](CO)N1C[C@H](C)[C@H](CN(C)Cc2ccc3c(c2)OCO3)Oc2ncc(-c3ccccc3)cc2C1=O	-4.3	12.1[16.7 µM]
COc1cccc(NC(=O)N(C)C[C@@H]2Oc3ncc(C4=CCCCC4)cc3C(=O)N([C@@H](C)CO)C[C@@H]2C)c1	8.5	7.7[16.7 µM]
Cc1noc(C)c1S(=O)(=O)Nc1ccc2c(c1)C(=O)N([C@H](C)CO)C[C@@H](C)[C@H](CN(C)C(=O)Nc1ccc(F)cc1)OCCCC[C@H](C)O2	10.3	-70.2[16.7 µM]
C[C@H](O)C#Cc1cnc2c(c1)C(=O)N([C@H](C)CO)C[C@H](C)[C@H](CN(C)C(=O)CN(C)C)O2	5.5	25.1[16.7 µM]
Cc1noc(C)c1S(=O)(=O)N(C)C[C@@H]1Oc2c(NC(=O)C3CC3)cccc2C(=O)N([C@H](C)CO)C[C@@H]1C	-6.8	-4.0[16.7 µM]
CC(C)NC(=O)Nc1ccc2c(c1)CC(=O)N([C@H](C)CO)C[C@H](C)[C@H](CN(C)C(=O)Nc1ccccc1)O2	5.6	2.4[16.7 µM]
C[C@@H]1CN([C@H](C)CO)S(=O)(=O)c2ccc(/C=C/c3ccccc3)cc2O[C@@H]1CN(C)C(=O)C1CC1	10.8	7.2[16.7 µM]

Among those listed so far, 2 have an aryl methoxy group.
SMILES	UUG fidelity	HIV Env fusion
COc1ccccc1-c1cn(CC[C@@H]2CC[C@H](NC(=O)C3CCCCC3)[C@@H](CO)O2)nn1	-12.1	?
COc1cccc(NC(=O)N(C)C[C@@H]2Oc3ncc(C4=CCCCC4)cc3C(=O)N([C@@H](C)CO)C[C@@H]2C)c1	8.5	7.7[16.7 µM]

Carrying on:
SMILES	UUG fidelity	HIV Env fusion
COc1cccc(S(=O)(=O)N(C)C[C@H]2Oc3cc(C4=CCCC4)ccc3S(=O)(=O)N([C@H](C)CO)C[C@H]2C)c1	-15.5	94.6*[16.7 µM]
C[C@H](CO)N1C[C@H](C)[C@H](CN(C)Cc2ccc(Oc3ccccc3)cc2)Oc2cc(-c3ccncc3)ccc2S1(=O)=O	6.2	18.0[16.7 µM]
C[C@H]1CCCCO[C@@H](CN(C)Cc2ccc3c(c2)OCO3)[C@@H](C)CN([C@@H](C)CO)C(=O)c2cc(NS(=O)(=O)c3ccc(Cl)cc3)ccc2O1	2.7&-4.0	-66.0&3.8[16.7 µM]
Cc1ccccc1S(=O)(=O)NCC[C@@H]1CC[C@@H](NC(=O)C2CCCCC2)[C@@H](CO)O1	7.9	-5.3[16.7 µM]
C[C@@H](NC(=O)C[C@@H]1C=C[C@@H](NC(=O)c2cccnc2)[C@@H](CO)O1)c1ccccc1	-9.2	-9.8[16.7 µM]
CCCNC(=O)N[C@@H]1C=C[C@H](CC(=O)NC2CCC2)O[C@@H]1CO	7.1	-6.5[16.7 µM]
O=C(Cc1ccncc1)N[C@@H]1CC[C@@H](CCn2cc(-c3ccccc3F)nn2)O[C@H]1CO	-4.0	-3.2[16.7 µM]
COc1ccc(CNC(=O)C[C@@H]2C=C[C@@H](NC(=O)CN(C)C)[C@H](CO)O2)cc1	-16.6	-1.7[16.7 µM]
CN(C)C(=O)C[C@@H]1C[C@@H]2c3cc(NC(=O)NC4CCCC4)ccc3O[C@@H]2[C@H](CO)O1	-6.1	3.1[16.7 µM]
O=C(C[C@H]1C=C[C@H](NC(=O)Nc2cc(F)ccc2F)[C@H](CO)O1)Nc1ccccc1	-18.6	-5.2[16.7 µM]
CS(=O)(=O)Nc1ccc2c(c1)[C@@H]1C[C@@H](CC(=O)NC3CCCCC3)O[C@@H](CO)[C@@H]1O2	3.2	-18.9[16.7 µM]
CNC[C@@H]1Oc2ccc(N(C)C)cc2C(=O)N([C@@H](C)CO)C[C@@H]1C	2.2	23.5[16.7 µM]
COC(=O)c1ccc([C@H]2C=C(C(=O)N3CCN(Cc4ccc5c(c4)OCO5)CC3)O[C@@H](OCc3ccc(CO)cc3)C2)cc1	4.2	-8.3[16.7 µM]
COCC(=O)N(C)C[C@H]1Oc2cc(-c3cccnc3)ccc2S(=O)(=O)N([C@H](C)CO)C[C@H]1C	-11.8	-10.8[16.7 µM]
CO[C@H]1CN(C)C(=O)c2ccc(NC(=O)NC(C)C)cc2OC[C@H](C)N(CC2CC2)C[C@H]1C	-4.8	5.5[16.7 µM]
Cc1ccc(S(=O)(=O)Nc2cccc3c2O[C@@H](CN(C)Cc2ccc(Oc4ccccc4)cc2)[C@@H](C)CN([C@H](C)CO)C3=O)cc1	4.2	-9.5[16.7 µM]
Cc1ccccc1-c1ccc2c(c1)O[C@H](CN(C)C(=O)c1ccccn1)[C@H](C)CN([C@H](C)CO)S2(=O)=O	139.4*	11.1[16.7 µM]
O=C(C[C@@H]1C=C[C@@H](NC(=O)CN2CCOCC2)[C@@H](CO)O1)NCCc1ccccc1	-6.5	-4.4[16.7 µM]
C[C@H]1CCCCO[C@H](CN(C)Cc2ccc(C(F)(F)F)cc2)[C@@H](C)CN([C@@H](C)CO)C(=O)c2cc(NS(=O)(=O)c3ccc(Cl)cc3)ccc2O1	13.3	15.8[16.7 µM]
Cc1ccc(-c2ccc3c(c2)O[C@@H](CN(C)Cc2ccc(C(=O)O)cc2)[C@@H](C)CN([C@H](C)CO)S3(=O)=O)cc1	12.0	-5.6[16.7 µM]
C[C@@H]1CN([C@H](C)CO)C(=O)Cc2cc(NC(=O)NC3CCCCC3)ccc2O[C@@H]1CN(C)Cc1ccc(Oc2ccccc2)cc1	-12.5	-45.9[16.7 µM]
CO[C@H]1CN(C)C(=O)c2ccc(NC(=O)C3CCC3)cc2OC[C@H](C)NC[C@H]1C	-12.5	4.1[16.7 µM]
COc1cccc(S(=O)(=O)N[C@H]2CC[C@@H](CC(=O)NCc3ccncc3)O[C@@H]2CO)c1	-16.2	49.7[16.7 µM]
Cc1ccc(S(=O)(=O)N(C)C[C@@H]2OCCCC[C@@H](C)Oc3ccc(NC(=O)NC(C)C)cc3C(=O)N([C@@H](C)CO)C[C@@H]2C)cc1	6.2	9.1[16.7 µM]
CCCNC(=O)N(C)C[C@H]1Oc2cc(C3=CCCCC3)ccc2S(=O)(=O)N([C@H](C)CO)C[C@@H]1C	-0.4	7.9[16.7 µM]
O=C(C[C@H]1C[C@H]2c3cc(NC(=O)Nc4ccccc4)ccc3O[C@H]2[C@H](CO)O1)NCc1cccnc1	-17.7	8.3[16.7 µM]
C[C@H](CO)N1C[C@H](C)[C@H](CN(C)C(=O)Nc2ccccc2)Oc2ccc(NC(=O)NC3CCCCC3)cc2CC1=O	1.2	-50.6[16.7 µM]
Cc1ccc(S(=O)(=O)Nc2ccc3c(c2)C(=O)N([C@@H](C)CO)C[C@H](C)[C@@H](CN(C)C(=O)Nc2ccc4c(c2)OCO4)OCCCC[C@@H](C)O3)cc1	-8.0	-73.7[16.7 µM]
CC(C)NC(=O)N(C)C[C@H]1OCCCC[C@@H](C)Oc2ccc(NC(=O)NC3CCCCC3)cc2C(=O)N([C@@H](C)CO)C[C@H]1C	5.2	-2.0[16.7 µM]
CCCNC(=O)N(C)C[C@@H]1Oc2ncc(-c3cccc(C#N)c3)cc2C(=O)N([C@H](C)CO)C[C@@H]1C	7.2	-10.1[16.7 µM]
CO[C@H]1CN(C)C(=O)c2cc(NC(=O)Nc3ccccc3)ccc2OC[C@H](C)N(C(C)=O)C[C@H]1C	6.8	-3.6[16.7 µM]
C[C@@H]1CN([C@@H](C)CO)C(=O)c2cc(C#CC(C)(C)O)cnc2O[C@H]1CN(C)C(=O)C1CCC1	-12.4	-3.0[16.7 µM]
C[C@H]1CN([C@@H](C)CO)C(=O)c2cccc(NC(=O)C3CC3)c2O[C@@H]1CN(C)S(=O)(=O)c1cn(C)cn1	-1.1	-3.3[16.7 µM]
COc1ccc(S(=O)(=O)N2C[C@@H](O)COC[C@H]3O[C@H](CC(=O)N[C@H]4CCN(Cc5ccccc5)C4)CC[C@@H]32)cc1	0.8	18.6[16.7 µM]
O=C1O[C@@H](c2ccccc2)[C@@H](c2ccccc2)N2[C@@H](c3ccccc3OCCO)[C@]3(C(=O)Nc4ccc(C#CC5=CCCCC5)cc43)[C@@H](C(=O)N3CCN(c4ncccn4)CC3)[C@H]12	-0.5	22.3[16.7 µM]
C[C@@H]1CN([C@@H](C)CO)C(=O)c2cc(C#CC3CCCC3)cnc2O[C@@H]1CN(C)C(=O)Nc1ccccc1	7.1	7.2[16.7 µM]
COc1cccc(S(=O)(=O)Nc2ccc3c(c2)[C@H]2C[C@H](CC(=O)N[C@@H](C)c4ccccc4)O[C@@H](CO)[C@H]2O3)c1	1.0	-6.3[16.7 µM]
Cc1ccc(S(=O)(=O)N(C)C[C@@H]2OCCCC[C@@H](C)Oc3ccc(NC(=O)Nc4ccc(C(F)(F)F)cc4)cc3C(=O)N([C@H](C)CO)C[C@@H]2C)cc1	-14.7	-18.8[16.7 µM]
C[C@@H]1CN([C@@H](C)CO)C(=O)Cc2cc(NC(=O)Cc3cn(C)c4ccccc34)ccc2O[C@H]1CN(C)Cc1ccc2c(c1)OCO2	11.6	-10.4[16.7 µM]
COc1ccccc1-c1ccc2c(c1)O[C@@H](CN(C)CC1CCOCC1)[C@@H](C)CN([C@@H](C)CO)S2(=O)=O	-5.2	-9.6[16.7 µM]
CNC[C@@H]1Oc2c(NS(=O)(=O)c3ccc(F)cc3)cccc2C(=O)N([C@H](C)CO)C[C@@H]1C	-4.9	-2.3[16.7 µM]
COc1ccc(NC(=O)N(C)C[C@H]2Oc3ccc(NC(=O)NC4CCCCC4)cc3CC(=O)N([C@@H](C)CO)C[C@@H]2C)cc1	53.9	-3.3[16.7 µM]
C[C@H]1CN([C@@H](C)CO)S(=O)(=O)c2ccc(/C=C/c3ccccc3)cc2O[C@H]1CN(C)C(=O)C1CC1	17.1	15.3[16.7 µM]
CCCNC(=O)N(C)C[C@H]1Oc2ncc(C#Cc3ccncc3)cc2C(=O)N([C@H](C)CO)C[C@@H]1C	-13.8	-30.1[16.7 µM]
C[C@@H]1CN([C@@H](C)CO)C(=O)c2cc(NC(=O)NC3CCCCC3)ccc2O[C@@H]1CN(C)C(=O)Nc1ccc2c(c1)OCO2	0.0	4.6[16.7 µM]
Cc1noc(C)c1S(=O)(=O)N(C)C[C@H]1OCCCC[C@H](C)Oc2ccc(NC(=O)Nc3ccc(C(F)(F)F)cc3)cc2C(=O)N([C@@H](C)CO)C[C@@H]1C	-11.8	66.4*[16.7 µM]
Cc1ccc(S(=O)(=O)NCC[C@@H]2CC[C@H](NC(=O)c3cccnc3)[C@H](CO)O2)cc1	-14.5	-9.3[16.7 µM]

An excerpt of these results, with values under each structure:
Values run as follows: UUG fidelity	HIV Env fusion
CCCNC(=O)N(C)C[C@H]1Oc2ncc(C#Cc3ccncc3)cc2C(=O)N([C@H](C)CO)C[C@@H]1C
 : -13.8	-30.1[16.7 µM]
COc1ccc(NC(=O)N(C)C[C@H]2Oc3ccc(NC(=O)NC4CCCCC4)cc3CC(=O)N([C@@H](C)CO)C[C@@H]2C)cc1
 : 53.9	-3.3[16.7 µM]
C[C@@H]1CN([C@@H](C)CO)C(=O)c2cc(NC(=O)NC3CCCCC3)ccc2O[C@@H]1CN(C)C(=O)Nc1ccc2c(c1)OCO2
 : 0.0	4.6[16.7 µM]

Assay outcomes (PubChem BioAssay)
